HPGD block: inhibitors of human 15-hydroxyprostaglandin dehydrogenase (HPGD); P15428; purified HPGD, NADH fluorescence kinetic, PGE2 substrate; Potency, µM, without a hit: top-dose activity change, negative = inhibition, hits mostly inhibitors; 150,000 compounds, 4.3% hits; active = well fitted inhibition curve with a large enough effect (not every such curve was filed as active); inconclusive = small, poorly fitted or top-dose-only effect, or another doubt; inactive = no such curve, though single readings can be large or run the other way;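 also: top concentration of the series not given in the record; plate controls included wells without enzyme; inactives centre near -10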
Target sequence (P15428 whole entry, looked up): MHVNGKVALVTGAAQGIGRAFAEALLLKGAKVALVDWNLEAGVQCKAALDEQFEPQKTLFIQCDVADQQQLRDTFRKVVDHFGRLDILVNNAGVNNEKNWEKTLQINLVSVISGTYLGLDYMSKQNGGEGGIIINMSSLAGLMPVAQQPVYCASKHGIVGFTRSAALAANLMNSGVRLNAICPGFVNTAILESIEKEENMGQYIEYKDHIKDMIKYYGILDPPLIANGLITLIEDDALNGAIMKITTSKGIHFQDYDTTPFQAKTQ
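20 nM HPGD preincubated 15 min at room temperature with compound in 50 mM Tris-HCl pH 8, 0.01% Tween 20. Started with 1 mM NAD+ and 30 uM prostaglandin E2; NADH fluorescence (360/450 nm) read 5 times over 30-s intervals, last minus first.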
Starred values were filed as active, the others as inactive; ? = inconclusive; & = joins results of further samples. % is scaled to controls: 0 for no effect and ±100 for the full control effect; potency is read from the fitted curve at half-maximal effect. These rows are one share of the data; the hit share may differ from the screen's.

SMILES | HPGD block
O=C(c1ccccc1)N1CCN(c2ncnc3sc4c(c23)CCC4)CC1 | -14%
COc1ccc2nc(NS(=O)(=O)c3ccc(NC(C)=O)cc3)sc2c1 | 28µM*
CCOCC(=O)Nc1cc(C(F)(F)F)ccc1Oc1cccc(Br)c1 | -10%
Cc1ccc(C(=O)O/N=C2\CCS(=O)(=O)c3sccc32)cc1 | -1%
Cn1c(C(=O)N2CCN(Cc3ccc4c(c3)OCO4)CC2)cc2sccc21 | ?
Cc1ccc(CNC(=O)C2CCC(=O)N2C2CCCCC2)cc1 (centres undefined) | -7%
COc1ccc(COCC(CC(C)C)N2CCN(C(=O)c3cccc(C(F)(F)F)c3)CCC2=O)cc1 (centres undefined) | -12%
COc1ccc(-c2nnc(SCC(=O)Nc3ccccc3)n2C)cc1 | -11%
CS(=O)(=O)c1ccc2nc(NC(=O)Nc3ccc(Cl)c(Cl)c3)sc2c1 | ?
COc1ccc(-c2cc(=O)c3cc(OC)ccc3o2)cc1 | ?
COc1ccc(N2C(=S)N=C(Nc3cccc(C)c3)C23CCCCC3)cc1 | 3%
O=S(=O)(c1ccc(-n2cnnn2)cc1)N(C1CCCCC1)C1CCCCC1 | -7%
CN(C)c1ccc(C(=O)OCC(=O)NC2CCCCC2)cc1 | -22%
O=C1N=C(N2CCCC2)CN1c1ccccc1 | -13%
CCOCc1cn(CC(=O)c2ccc([N+](=O)[O-])cc2)c(C)nc1=N | -3%
COc1ccccc1-c1cc(C(=O)N2CCc3ccccc3C2)c2ccccc2n1 | -19%
COc1cccc(CNC(=O)C(c2ccc(Cl)cc2)C(C)C)c1 (centres undefined) | -13%
CC(C)c1ccc(NC(=O)C2CC(=O)N(C(C)C)C2)cc1 (centres undefined) | -2%
CN(CC(=O)Nc1ccc(N2CCOCC2)cc1)CC(=O)Nc1ccc(Cl)cc1[N+](=O)[O-] | -23%
O=C(Cn1cc2c(n1)CCCC2)NCc1cccs1 | ?

Two of these compounds in a different format.
HPGD block | compound
-23% | CN(CC(=O)Nc1ccc(N2CCOCC2)cc1)CC(=O)Nc1ccc(Cl)cc1[N+](=O)[O-]
? | O=C(Cn1cc2c(n1)CCCC2)NCc1cccs1

(listing goes on)
SMILES | HPGD block
COc1ccc(C(=O)N2CCC[C@@]3(CCN(CC(C)C)C3)C2)cc1 | -14%
COc1cc(N=c2ssnc2Cl)cc(OC)c1 | 0.63µM*
On1onc2c3cc(-c4ccccc4)nc3ccc21 | -13%
C=CCC(O)c1ccccc1 (centres undefined) | -7%
COc1ccccc1CNC(=O)c1nnc(Cc2ccc(Cl)cc2)o1 | -11%
CC1CC(=O)N(c2ccc(NCc3ccc(Cl)cc3)c([N+](=O)[O-])c2)C1=O (centres undefined) | -20%
CN(Cc1ccccc1)c1ccc(C(=O)O)cc1[N+](=O)[O-] | -14%
COc1cc(CNc2ccc(N3CCOCC3)c(C(=O)O)c2)ccc1OCC(N)=O | -12%
CCOC(=O)C1CCN(C(=O)CSc2n[nH]c(=O)[nH]c2=O)CC1 | -13%
CCCOc1ccc(C(=O)N/N=C/c2ccc(-c3ccc(S(=O)(=O)Nc4ncccn4)cc3)o2)cc1 | ?
Cc1ccc(NS(=O)(=O)c2cccc(C(=O)O)c2)cc1S(=O)(=O)N1CCOCC1 | -7%
COc1ccc(S(=O)(=O)NCCC(=O)NC(C)c2ccccc2)cc1 (centres undefined) | -4%
O=C(Cc1ccc(-c2ccccc2)cc1)NCc1ccccc1 | -6%
O=C(NC1(C(F)(F)F)NC(=O)N(c2ccc(F)c(Cl)c2)C1=O)c1ccncc1 (centres undefined) | -12%
CCCC(=O)Nc1ccc(OCC(=O)OC)cc1 | -4%
O=c1c2cnn(-c3ccc(F)cc3)c2ncn1Cc1cccnc1 | -21%
CC[C@@H]1Cn2c(c3nc(-c4cc(Cl)cc(Cl)c4Cl)nc-3n(C)c2=O)N1 | ?
O=C(NC(c1ccccc1)c1ccccc1)c1cccc(S(=O)(=O)NCc2ccccc2)c1 | -14%
CCC(=O)N1C(Cc2ccccc2)COC1(C)C (centres undefined) | -1%
O=C(NC1CCc2ccccc21)C1CCN(S(=O)(=O)c2ccc(-n3cnnn3)cc2)CC1 (centres undefined) | -2%

SMILES | HPGD block
O=C(Cc1ccccc1)NC(NCCCN1CCOCC1)(C(F)(F)F)C(F)(F)F | -3%
C=CCCC(=O)Nc1nc(C)c(-c2csc(Nc3cc(Cl)ccc3OC)n2)s1 | ?
COc1ccc2cc3cc(C(=O)NCCN4CCN(c5ccccc5F)CC4)oc3nc2c1 | ?
Cc1nn(C(C)c2n[nH]c(=S)n2-c2cccc(Cl)c2)c(C)c1[N+](=O)[O-] (centres undefined) | 22µM*
COc1ccc(N2CCN(C(CNC(=O)c3ccco3)c3cccnc3)CC2)cc1 (centres undefined) | 2%
COc1ccc(-n2c(Cc3cccn3C)nnc2SCC(=O)Nc2ccc(F)cc2F)cc1 | -12%
COc1ccccc1NS(=O)(=O)c1cc(NC(=O)CCC(=O)c2cccs2)ccc1Cl | 1%
CC(=O)Nc1nc(C)c(C(C)=O)s1 | -20%
N/C(=N\OC(=O)CCCOc1ccccc1)c1ccc(Br)cc1 | 0%
CCn1nc(CC(=O)Nc2ccc(-n3cnnn3)c(C)c2)c2ccccc2c1=O | -5%
Cc1nc2c(c(=O)n1Cc1ccco1)c1nc3ccccc3nc1n2Cc1ccccc1 | -13%
c1cc2c3c(cccc3c1)NC1(CCCCCC1)N2 | ?
C[C@@]12C=CC(=O)C=C1CC[C@@H]1[C@@H]2[C@H](O)C[C@]2(C)[C@@H]1CC[C@]2(O)C(=O)CO | -5%
Cc1ccc(/C=N\n2c(-c3ccccc3)n[nH]c2=S)s1 | 11µM*
COc1cccc(N2CCN(C(=O)CN(c3ccc(C)cc3)S(=O)(=O)c3c(C)n[nH]c3C)CC2)c1 | -8%
Cc1nn(-c2ccccc2)c2sc(C(=O)OC3CCOC3=O)cc12 (centres undefined) | ?
Cc1cnc(C(=O)OCC(=O)NC23CC4CC(CC(C4)C2)C3)cn1 | 0%
O=C(N/N=C1\CCCc2ccccc21)C(O)c1ccccc1 (centres undefined) | -15%
CCN(CCCNC(=O)CCCn1c(=O)[nH]c2ccccc2c1=O)c1cccc(C)c1 | -15%
CC(=O)N1C(=O)C2(Nc3ccccc3N2)c2ccccc21 | -11%

SMILES | HPGD block
CCN1CCC[C@@H](OC(=O)C(c2ccccc2)c2ccccc2)C1 | -11%
Cc1cc(C)cc(Nc2ccc([N+](=O)[O-])nc2[N+](=O)[O-])c1 | -8%
Cc1cc(C)cc(NC(=S)N=Nc2c(O)n(C)c3ccc(S(=O)(=O)N4CCOCC4)cc23)c1 | -4%
CCOC(=O)C1=C(CC)Nc2ccccc2N=C1NC(=O)Cn1cnc2ccccc2c1=O | -1%
O=C(CN1C(=O)c2ccccc2S1(=O)=O)Nc1ccccc1 | -17%
C=CCc1cc(/C=C2/NC(=S)NC2=O)cc(OC)c1O | 25µM*
Oc1cccc2ccc(Nc3ccccn3)nc12 | -15%
O=C(c1cc(C(F)(F)F)cc(C(F)(F)F)c1)N1CCC2(CCCN(Cc3nccs3)C2)CC1 | -6%
CCCCC[C@H](O)/C=C/[C@@H]1[C@@H](C/C=C\CCCC(=O)O)[C@@H](O)C[C@@H]1O | -16%
Cc1ccc(S(=O)(=O)N2CCN(C(=O)N(c3ccccc3)c3ccccc3)CC2)cc1 | -1%
O=C(NC(NCC1CCCO1)C(Cl)(Cl)Cl)c1cccc2ccccc12 (centres undefined) | -9%
O=C1CCC(=O)N1CN(Cc1ccco1)CN1C(=O)CCC1=O | -8%
Cn1c(=O)c2c(O)cc(=O)[nH]c2n(-c2ccccc2)c1=O | -10%
Cc1ccc(NC2=C(Cl)C(=O)OC2OC(C)C)c(C)c1 (centres undefined) | -5%
CCC(=O)NC(NC(=S)Nc1cccc2cccnc12)C(Cl)(Cl)Cl (centres undefined) | -6%
COC(=O)[C@@H]1C[C@@]2(O)[C@@H](O)[C@@H](O)[C@@H](O)C[C@H]2N1Cc1ccc(C(F)(F)F)cc1 | -4%
Cc1ccc(C)c(C2C(C#N)=C(N)Oc3cc(C)oc(=O)c32)c1 (centres undefined) | -11%
CC(C)[N+](C)(CCOC(=O)C1c2ccccc2Oc2ccccc21)C(C)C | -5%&3%&-10%&-4%
CN(C)c1cc[n+](CCC(=O)Nc2cccc([N+](=O)[O-])c2N)cc1 | 0%
CCCCNC(=S)N(C)/N=C/c1ccc(OCC(=O)Nc2c(C)cc(C)cc2C)c(OC)c1 | -18%

SMILES | HPGD block
COc1ccc(-c2noc(-c3ccc4c(c3)OCO4)n2)cc1 | ?
CCC(=O)N1CCN(c2ccccc2NC(=O)COc2ccccc2Cl)CC1 | -11%
Cc1cc(-c2n[nH]c(=S)n2/N=C/c2ccccc2[N+](=O)[O-])n[nH]1 | -26%
Cn1nc(C(F)(F)F)c(C(=O)Nc2ccc(F)cc2F)c1Sc1ccc(Cl)cc1 | -11%
Cc1ccc(S(=O)(=O)N2CCC(C(=O)NNS(=O)(=O)c3ccc(Cl)cc3)CC2)cc1 | 2%
CC1Cc2ccccc2N1C(=O)c1cccnc1 (centres undefined) | -18%
O=S1(=O)C=CC(Sc2nc3ccccc3[nH]2)C1 (centres undefined) | -12%
O=C(CCC1N=C2c3ccccc3N=C(SCc3cccc(Cl)c3)N2C1=O)NCc1ccco1 (centres undefined) | -26%
C=C(C)CSc1nnc(-c2ccccc2)n1N | -23%
Cn1c(CO)c(-c2ccccc2)c2cc([N+](=O)[O-])ccc21 | -12%
O=C1C(c2ccc(F)cc2)N(Cc2ccc3c(c2)OCO3)C(=O)CN1C1CCCCC1 (centres undefined) | -8%
Fc1ccccc1N1CCN(Cc2cccnc2)CC1 | 1%
Cc1cc(N/N=C/c2ccc(O)cc2)nc(NS(=O)(=O)c2ccccc2)n1 | -29%
Cc1ccccc1NC(=S)NC(=O)CCc1ccccc1 | -8%
Cc1ccccc1Cn1ccc(NC(=O)c2cnn3cccnc23)n1 | -13%
O=C(O)CC(C(=O)Nc1ccc(Cl)c(Cl)c1)C1CCCO1 (centres undefined) | -15%
COc1ccc(-c2cc(-c3ccccc3O)[nH]n2)cc1OC | -16%
C/C(N)=C(/C#N)C(=O)COC(=O)c1cc(-c2cccc3ccccc23)nc2ccccc12 | ?
CCOc1ccccc1/C=N/NC(=O)Cc1csc(Nc2cccc(C(F)(F)F)c2)n1 | -17%
Cc1nnc(SCc2ccc(CC(=O)O)cc2)o1 | -2%

SMILES | HPGD block
Cc1ccc(Cc2nnc3n(-c4ccccc4)nc(C(=O)c4ccccc4)n3c2=O)cc1 | -12%
Cc1ccccc1OCCn1c(=O)sc2ccccc21 | -10%
O=Nc1ccc(NOC(=O)c2ccc(Br)cc2)cc1 | -7%
COc1ccccc1N1CCN(C(=O)/C=C/c2ccc3c(c2)OCO3)CC1 | -23%
CC(=O)Nc1c(Br)cc(N2C(=O)CCC2=O)cc1Br | 1%
O=C(CCc1ccccc1)OCC(=O)c1ccc(Br)cc1 | -9%
O=S(=O)(c1ccc(F)cc1)N1CCC(N2CCCCCC2)CC1 | -4%
O=C(CSc1ccc(-c2ccco2)nn1)NCc1ccccc1Cl | -16%
C=CCOC(=O)COc1ccc2c(C)c(C)c(=O)oc2c1C | ?
Cc1cc(Nc2ccc3c(c2)OCCO3)c2cc(Cl)ccc2n1 | -7%
COc1ccc2[nH]c(=O)c(CN(CCCN(C)C)C(=O)Nc3ccc(F)cc3)cc2c1 | -14%
COc1ccc(NC(=O)CCSc2nnc(C)s2)cc1 | 0%
O=C(CSCc1ccccc1)Nc1cccc(F)c1 | -29%
Cc1c(NC(=O)c2ccc(C(C)(C)C)cc2)cccc1[N+](=O)[O-] | -10%
CCN(CC)C(=O)NC1CC2CCCC(C1)N2Cc1ccccc1 (centres undefined) | -6%
C=CCNC(=O)c1onc(CSc2cc(C)cc(C)c2)c1C(=O)O | -22%
CCn1nc(C(=O)NC2=NCCS2)c2ccccc2c1=O | 1%
O=C(C1CCCCN1S(=O)(=O)c1ccc(F)cc1)N1CCN(c2ccccc2F)CC1 (centres undefined) | -6%
O=C(O)c1ccc(CNCc2ccccc2Cl)cc1 | -22%
Cc1cc2nc(-c3ccc(NC(=O)c4cccnc4)cc3)oc2cc1C | -14%

SMILES | HPGD block
CCCCCCCCCCCCCCCCOC[C@H](COP(=O)([O-])OCC[N+](C)(C)C)OC(=O)NC | -7%
Cc1ccc(-n2ncc3c(NCCCN4CCOCC4)ncnc32)c(C)c1 | -14%
O=C1N=C(c2ccccc2)C(c2ccccc2)N1 (centres undefined) | ?
COc1cc(/C=N/NC(N)=O)ccc1OC(=O)c1ccc(C)cc1 | -14%
O=C(Nc1cccc(-c2cn3cccnc3n2)c1)c1ccc2c(c1)OCO2 | ?
COc1ccc(C(=O)/C=C(/C)N(C)C)cc1 | -15%

Quoted at random: 4 records from the list.
SMILES | HPGD block
Cn1c(=O)c2c(O)cc(=O)[nH]c2n(-c2ccccc2)c1=O | -10%
O=C(NC(NCC1CCCO1)C(Cl)(Cl)Cl)c1cccc2ccccc12 (centres undefined) | -9%
O=c1c2cnn(-c3ccc(F)cc3)c2ncn1Cc1cccnc1 | -21%
COc1ccc(-c2nnc(SCC(=O)Nc3ccccc3)n2C)cc1 | -11%

Assay outcomes deposited in PubChem BioAssay by National Center for Advancing Translational Sciences (NCATS).
